VDR inhibitor: Inhibitors of the vitamin D receptor (VDR): qHTS; VDR-SRC2-3 peptide fluorescence polarization, 2 h; Potency, µM, without a hit: max response, negative = inhibition, most hits filed as inhibitors; 0.93% of 400,000 active; AID 504847, 2011; active = well fitted inhibition curve with a large enough effect; inconclusive = small, poorly fitted or top-dose-only effect, or another doubt; inactive = no such curve, though single readings can be large or run the other way; also: series mostly up to about 120 µM
Target sequence (P11473 whole entry, looked up): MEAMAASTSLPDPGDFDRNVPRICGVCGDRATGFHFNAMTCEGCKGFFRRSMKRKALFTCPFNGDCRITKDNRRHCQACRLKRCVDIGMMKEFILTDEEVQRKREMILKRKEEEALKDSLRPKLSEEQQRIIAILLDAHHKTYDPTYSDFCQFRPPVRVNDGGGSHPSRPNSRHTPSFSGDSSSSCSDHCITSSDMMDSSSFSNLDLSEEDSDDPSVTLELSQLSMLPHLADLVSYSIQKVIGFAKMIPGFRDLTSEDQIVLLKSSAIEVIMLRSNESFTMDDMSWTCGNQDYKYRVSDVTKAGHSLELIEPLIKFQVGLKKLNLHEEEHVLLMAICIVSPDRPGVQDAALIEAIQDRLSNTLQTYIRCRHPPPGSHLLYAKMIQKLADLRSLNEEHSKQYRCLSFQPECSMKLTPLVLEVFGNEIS
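Two reagent solutions held at 4 deg C in the dark were dispensed, compounds pinned at 23 nl, and the mixture incubated 2 h at room temperature. Read-out: fluorescence polarization of VDR–SRC2-3 peptide binding.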
The depositor's hits bear a star; ? = inconclusive; & = joins results of further samples. % is scaled to controls: 0 for no effect and ±100 for the full control effect; potency is read from the fitted curve at half-maximal effect. These rows are one share of the data; the hit share may differ from the screen's.

SMILES,VDR inhibitor
O=C(CSc1nc(-c2ccccc2)c(-c2ccccc2)[nH]1)NCc1ccco1,?
COc1cc2c(cc1O)C(Cc1ccc(O)cc1)[N+](C)(C)CC2 (configuration not stated),-1.5%
O=C1CC2(CCCCC2)CC(=O)N1CCc1ccccc1,-8.7%
O=C(O)c1ccc2oc(=O)c(S(=O)(=O)c3ccc(F)cc3)cc2c1,3.2%
NC(=O)COc1ccc(/C=N/NS(=O)(=O)c2ccccc2)cc1,14.3%
Cc1ccccc1OCC(=O)Nc1nnc(-c2ccco2)s1,-1.9%
COc1ccc2[nH]cc(CCNC(=O)C3CC3)c2c1,-6.9%
O=C(Nc1ccc2oc(=O)ccc2c1)c1ccc2ccccc2c1,-11.2%
CCOC(=O)C1=C(COC(=O)[C@@H]2CCCN2S(=O)(=O)c2ccc(C)cc2)NC(=O)NC1C (some centres not stated),-13.0%
Cc1cccc(NC(=S)N(CCN2CCOCC2)Cc2cc3cc4c(cc3[nH]c2=O)OCCO4)c1,5.1%
COC(=O)C1CCN(C(=O)c2ccc(Cl)c(S(=O)(=O)NCc3ccco3)c2)CC1,-23.6%
COC(=O)CCn1[nH]c(=O)c2ccccc2c1=O,-5.0%
O=C(c1ccccc1)c1ccccc1NC(=O)C1CCCN1Cc1ccccc1 (configuration not stated),-6.5%
COc1ccccc1NC(=S)N1CCN(C(=O)c2ccco2)CC1,2.8%
CCOc1ccc(CN(C)C(=O)c2ccc(NS(=O)(=O)c3ccc4[nH]c(=O)[nH]c4c3)cc2)cc1,-6.4%
CC(=O)c1cc(CN2CCN(Cc3ccc(C)cc3)C(CCO)C2)cs1 (configuration not stated),2.8%
COC(=O)c1cccc(NC(=O)CSc2nnc(C)n2C)c1,-3.5%
O=S(=O)(c1ccccc1)N1CCC[C@@]2(CCN(c3cccc(-c4ccccc4)c3)C2)C1,-29.6%
Cc1ccc(S(=O)(=O)N2CCC(C(=O)NCC3CCCO3)CC2)cc1 (configuration not stated),-7.1%
Cc1ccccc1NC(=O)N(C(C)C)C(C)C,11.8%
CCOC(=O)C1=C(C)N(Cc2ccccc2)C(=O)NC1c1ccccc1OS(=O)(=O)c1ccccc1[N+](=O)[O-] (configuration not stated),-2.4%
O=C(COC(=O)CNC(=O)c1ccccc1F)Nc1ccc(Cl)cn1,-18.7%
COc1ccc(N(C(=O)c2ccccc2C)S(=O)(=O)c2ccc3c(c2)n(C)c(=O)n3C)cc1,4.5%
CCNC(=O)CN(C1CCCCC1)S(C)(=O)=O,13.0%
CCc1nnc(NC(=O)CSc2nnc(CNC(=O)c3ccc(OC)c(OC)c3)o2)s1,-3.3%

(further entries)
SMILES,VDR inhibitor
O=C(c1ccccc1)N1CCN(CCc2ccccn2)CC1,22.7%&5.1%
O=C(c1ccc(Cl)cc1)c1cnc2ccccn12,3.7%
CC(SC1=NCCS1)C(=O)Nc1nnc(-c2ccc(Cl)cc2)s1 (configuration not stated),-21.8%
CC(C)c1ccc(NC(=O)c2cc(S(=O)(=O)N3CCCCC3)c[nH]2)cc1,-7.7%
CN(Cc1ccccc1)C(=O)c1cc(-c2cccc(Cl)c2)on1,-12.3%
Cc1ccc(C(C(=O)NC2CCCCC2)N2CCC3(CC2)OCCO3)cc1 (configuration not stated),7.9%
CC1CCN(C(=O)CSc2nnc(-c3ccccc3)o2)CC1,-3.6%
Cc1ccc(C)c(CSc2ncccc2C(=O)O)c1,2.5%
S=C(Nc1cc(Cl)cc(Cl)c1)N1CCN(c2ccccn2)CC1,26.4%
O=C(O)c1ccccc1-c1csc(-c2ccccc2)n1,-7.2%
CC12CC(O)C3c4ccc(O)cc4CCC3C1CC/C2=N\O (configuration not stated),-6.4%
O=C(C1=COCCO1)N(Cc1nnc(-c2ccccc2Cl)o1)C1CC1,-15.0%
O=C(NCC1CCCCC1)NCC1CCCCC1,-10.0%
O=C(CSc1ncn[nH]1)NCc1ccccc1,-11.9%
Cc1cccc(C(=O)NCCc2ccc(S(N)(=O)=O)cc2)c1[N+](=O)[O-],7.6%
Cc1cccc(NC(=O)c2sc(-c3ccccc3)nc2-c2ccc([N+](=O)[O-])cc2)c1,2.8%
Cc1ccc(-n2nc(C)c3nc(CCC(=O)Nc4cccc(C)c4C)c(=O)n(C)c32)cc1,4.6%
O=C(C1CCCN(S(=O)(=O)c2cc(Cl)ccc2Cl)C1)N1CCCC1 (configuration not stated),1.1%
CCOC(=O)CSC1=Nc2ccccc2C2=NC(CC(=O)NCc3ccc(OC)cc3)C(=O)N12 (configuration not stated),-3.7%
CCC(C(=O)NCc1cccnc1)n1nc(C)c2sc3ccccc3c2c1=O (configuration not stated),?
CC(C)(C)SCCNC(=O)CN1C(=O)c2cccc3cccc1c23,1.0%
CCOC(=O)C(NC(=O)OC(C)C)(Nc1nccs1)C(F)(F)F (configuration not stated),2.3%
C/C(CCc1oc2ccc(Cl)cc2c1-c1ccc(C)o1)=N\O,-1.1%
CCc1ccc(NCc2cc3ccc(OC)cc3n(CC(=O)Nc3c(C)cc(C)cc3C)c2=O)cc1,2.2%
CN(C)/C=N/c1ncc(-c2ncc(C(F)(F)F)cc2Cl)cn1,17.4%

3 compounds out of the list, ordered by SMILES length, ascending:
SMILES,VDR inhibitor
CC12CC(O)C3c4ccc(O)cc4CCC3C1CC/C2=N\O (configuration not stated),-6.4%
CCC(C(=O)NCc1cccnc1)n1nc(C)c2sc3ccccc3c2c1=O (configuration not stated),?
CCOC(=O)CSC1=Nc2ccccc2C2=NC(CC(=O)NCc3ccc(OC)cc3)C(=O)N12 (configuration not stated),-3.7%

Later entries.
SMILES,VDR inhibitor
COCc1ccc(CN2CCC(n3nccc3NC(=O)CCOc3ccccc3)CC2)o1,-7.1%
O=C(CCCN1C(=O)c2ccccc2C1=O)Nc1ccccc1,-10.9%
COc1ccc(-c2oc3ncnc(N)c3c2-c2ccccc2)cc1,1.3%
COCCCNC(=O)c1ccc(Cn2c(=O)c3ccccc3n(Cc3ccccc3C)c2=O)cc1,-2.8%&20.3%
CCOC(=O)c1c(SCC(=O)Nc2nc3ccc(C)cc3s2)nc(=O)[nH]c1C,-2.2%
CN(CC(=O)Nc1ccc(F)cc1)C(=O)c1ccc2ccccc2n1,-0.8%
O=C(COC(=O)Cn1cnc2ccccc21)Nc1ccc2c(c1)OCCO2,0.4%
COC(=O)c1cc(OC)c(OC)cc1NC(=O)CCNC(=O)c1ccco1,-1.7%
CN1C(=O)C(CC(=O)NCC2CCCCC2)SC1=Nc1ccccc1 (configuration not stated),13.0%
Cc1sc(-n2c(C)ccc2C)c(C#N)c1C,79.4µM*
Cc1ccc2oc(-c3cc(NC(=O)c4ccco4)ccc3Cl)nc2c1,?
CCCC1CCC(=NNS(=O)(=O)c2ccc(C)c([N+](=O)[O-])c2)CC1 (configuration not stated),-27.9%
CCOC(=O)Cn1c(C)cc(COC)c(C#N)c1=O,-7.0%
O=C(Cn1ccc([N+](=O)[O-])n1)N1CCCc2ccccc21,13.6%
CCn1c(CNC(=O)c2ccc(OC)c(OC)c2)nnc1SCC(=O)c1ccc(OC)cc1,-15.6%
CCN(CCn1cccn1)Cc1nc(-c2ccc(OC)cc2)no1,3.8%
Nc1nnc(CC(=O)N/N=C/c2cccc([N+](=O)[O-])c2)s1,-9.0%
CCCCn1c(N)c(N(CCC(C)C)C(=O)COC(=O)c2ccc([N+](=O)[O-])s2)c(=O)[nH]c1=O,-1.8%
C/C(=N\NC(=O)c1cccc(N/N=C(\C)c2ccc([N+](=O)[O-])cc2)c1)c1ccc([N+](=O)[O-])cc1,-12.0%
Cc1ccccc1NC(=S)N1CCN(Cc2ccc3c(c2)OCO3)CC1,-23.4%
COc1ccc(NC(=O)C(NS(=O)(=O)c2ccc3c(c2)CCCC(=O)N3)C(C)C)c(OC)c1 (configuration not stated),-10.2%
Cc1cc(C)c(S(=O)(=O)c2ccccc2)c(Cl)n1,-3.7%
Nc1nn(-c2ccccc2)c(N)c1N=Nc1cccc(F)c1,?
COc1ccccc1C(=O)NCC(=O)OCC(=O)Nc1ccc2[nH]c(=O)[nH]c2c1,-12.7%
COc1ccc(N=Cc2c(O)[nH]c3ccccc23)cc1,-1.1%

Remaining list, next part.
SMILES,VDR inhibitor
COC(=O)C1=CN(Cc2ccc(OC)c(OC)c2)C=C(C(=O)OC)C1c1ccc(F)cc1,1.2%
COc1ccc(CC(NC(C)=O)C(=O)NC2CCN(c3c(Cc4ccccc4)c(C)nc4ncnn34)CC2)c(OC)c1 (configuration not stated),14.5%
Cc1onc(-c2ccccc2Cl)c1C(=O)NC(=S)Nc1ccccc1C(N)=O,3.8%
O=C(Cc1n[nH]c(=O)c2ccccc12)OCC(=O)c1ccc(OC(F)F)cc1OC(F)F,-22.8%
COc1ccc(NC(=O)C2CCN(C(=O)N3CCOc4ccccc43)CC2)cc1,-2.9%
COCC(C)NC(=O)/C(=C/c1ccccc1)c1ccccc1 (configuration not stated),-20.0%
CCOc1ccc(Br)cc1CNc1ccc2c(c1)OCCO2,2.3%
CCOc1nc(C)ccc1-c1noc(-c2ccco2)n1,1.6%
Cc1ccccc1Nc1scc(-c2ccc(Br)cc2)[n+]1-c1ccccc1C,-1.5%
O=C(NCc1ccccc1)c1ccc(Cl)c(NC2=NC3CS(=O)(=O)CC3S2)c1 (configuration not stated),-7.6%
Cn1c(N)c(C(=O)COC(=O)CCCc2c[nH]c3ccccc23)c(=O)n(C)c1=O,1.2%
Cc1ccc(-n2nc(CO)c(C(=O)NCc3ccccn3)n2)cc1C,0.9%
COc1cc(NC(=O)COc2ccccc2C)ccc1NC(=O)c1ccco1,16.4%
CCn1c(SCC(=O)N2CCCC2=O)nnc1-c1cccs1,-5.4%
N#C/C(=C\c1ccccc1C(F)(F)F)C(=O)Nc1ccccc1F,-24.5%
CN1CCN(Cc2nc3ccccc3c(=O)n2Cc2nc(-c3ccc([N+](=O)[O-])cc3)cs2)CC1,-12.7%
CCCOc1ccc(C(=O)NCCN2CCOCC2)cc1,-0.9%
CCOC(=O)COc1ccc([N+](=O)[O-])cc1,2.4%
O=C(/C=C/c1cccc(F)c1)N1CCN(c2ncccn2)CC1,-7.5%
COc1ccccc1C(=O)Nc1ccc2c3c(cccc13)CC2,-9.0%
CC(C)c1ccc(NC(=O)CSc2nc(=O)n(CCCN3CCOCC3)c3c2CCCC3)cc1,-3.1%
COc1cc2ccccc2cc1C(=O)OCc1nc2ccsc2c(=O)[nH]1,12.0%
Nc1ncnc2c1ncn2[C@@H]1O[C@H](COP(=O)(O)O)[C@@H](O)[C@H]1O,-9.7%&9.0%
Nc1ncnc2c1ncn2CCNCCc1ccccc1,18.1%
Cc1ccc(S(=O)(=O)Cn2nnnc2C(CC(C)C)N2CCN(c3ccccc3)CC2)cc1 (configuration not stated),4.8%

Later entries
SMILES,VDR inhibitor
CCN(CC)S(=O)(=O)c1ccc2oc(C(=O)Nc3cc(C)ccc3OC)c(C)c2c1,7.2%
Cc1ccc(OCC(=O)Nc2ccc3nc(SCC(=O)N4CCc5ccccc54)sc3c2)cc1,-5.9%
O=c1oc2cc(O[C@@H]3OC[C@@H](O)[C@H](O)[C@H]3O)ccc2c2ccccc12,-4.7%
COc1ccccc1NC(=O)C(C)N(C)CCOc1ccccc1 (configuration not stated),6.6%
CS(=O)c1ccccc1COC(=O)Nc1cccc(Cl)c1 (configuration not stated),-8.5%
CC(=O)Nc1ccc(S(=O)(=O)NCC(=O)OCC(=O)NC(=O)c2cccn2C)cc1,1.5%
COc1ccccc1Nc1nnc(Cc2ccccc2)c(=O)[nH]1,10.1%
O=C(CCc1ccccc1)NC(c1cccs1)c1cc(Cl)c2cccnc2c1O (configuration not stated),-0.8%
CCCN(CC(=O)Nc1ccccc1C)C(=O)c1ccc2ccccc2n1,9.6%
CN1CC2(Cc3c1ccc1ccccc31)C(=O)OC(C)(C)OC2=O,4.4%&-2.8%
CCN(CC)c1nn2c(=O)c(C(=O)NCCc3ccc(C)cc3)cnc2s1,15.8%
COc1ccc(NC(=O)CSCC(=O)Nc2nnc(C3CC3)s2)cc1,-23.6%
COC(=O)C(=Nc1ccccc1)/C(C(=O)C(=O)N(C)c1ccccc1)=C(\O)c1ccc(Cl)cc1,-10.4%
CCC(=O)NCc1nc2ccccc2n1Cc1ccccc1,6.8%
COc1ccc(/C=N/Nc2nc(-c3cccc(S(=O)(=O)N4CCCC4)c3)cs2)cc1OC,6.9%
Cc1ccc(CN2CCN(/N=C/C=C/c3ccccc3[N+](=O)[O-])CC2)cc1,-11.2%
Cc1cc(NCc2ccccc2)nc(-c2ccccc2O)n1,5.5%
CCOC(=O)C1(CCOc2ccccc2)CCN(Cc2cc(OC)cc(OC)c2)CC1,5.3%
CC(=O)c1ccc(Oc2ccc(C(=O)c3ccc(C)c(C)c3)cc2[N+](=O)[O-])cc1,-6.1%
O=C(Nc1ccccc1)N1CCCC1c1cccs1 (configuration not stated),-2.3%
Cc1cc(C)c(NC(=O)CSc2nc3ncc(Cl)cc3[nH]2)c(C)c1,-7.4%
CC1=C(C#N)C(c2ccc3ncccc3c2)C(C#N)=C(C)N1,10.6%
NC(=O)Nc1ccc(C(=O)OCC(=O)N(Cc2ccccc2)C2CCS(=O)(=O)C2)cc1 (configuration not stated),-17.8%
O=C(CSc1n[nH]c(=O)[nH]c1=O)Nc1ccccc1C(=O)c1ccccc1,-13.9%
CCCCN(CCCC)CCNC(=O)CNC(=O)c1cccs1,-0.1%
COc1ccc(C)cc1NC(=O)NCCC1=CCCCC1,4.4%
C/C(=N/N1CCN(c2ccccc2)CC1)c1cccc([N+](=O)[O-])c1,0.8%

Source: PubChem BioAssay
